VDR inhibitor: vitamin D3 receptor (human) inhibition. VDR-SRC2-3 peptide fluorescence polarization, 2 h. Potency, µM, for the others: max response, negative = inhibition, actives largely listed as inhibitors. P11473. hit rate 0.93% among 400,000; active = well fitted inhibition curve with a large enough effect; inconclusive = small, poorly fitted or top-dose-only effect, or another doubt; inactive = no such curve, though single readings can be large or run the other way; note: series mostly up to about 120 µM
Target sequence (P11473 whole entry, looked up): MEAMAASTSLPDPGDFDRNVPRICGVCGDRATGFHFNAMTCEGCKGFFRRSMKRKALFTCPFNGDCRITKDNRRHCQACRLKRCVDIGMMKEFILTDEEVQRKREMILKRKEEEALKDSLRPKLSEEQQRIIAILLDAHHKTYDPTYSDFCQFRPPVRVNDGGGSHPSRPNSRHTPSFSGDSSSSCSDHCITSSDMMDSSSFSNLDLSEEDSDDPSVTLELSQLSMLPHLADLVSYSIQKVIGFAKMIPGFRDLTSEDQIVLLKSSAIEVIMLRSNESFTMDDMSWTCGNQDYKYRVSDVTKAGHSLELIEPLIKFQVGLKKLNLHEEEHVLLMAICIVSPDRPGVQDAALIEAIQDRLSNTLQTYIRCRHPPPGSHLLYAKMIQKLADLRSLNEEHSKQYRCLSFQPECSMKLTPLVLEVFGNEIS
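FP read-out; VDR + SRC2-3 coactivator peptide; 23 nl compound by pintool; 2 h RT incubation; reagents held at 4 deg C, protected from light.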
Numbers without * were called inactive; ? = inconclusive; & = joins results of further samples; [ ] = another dose, or the depositor's remark. % is set by controls: 0 for no effect and ±100 for the full control effect; potency is the fitted concentration of half-maximal effect.

Sample of the layout, 22 compounds:
VDR inhibitor	SMILES
4%	CCOc1cc(/C=C/c2nc3cc(C)c(C)cc3s2)ccc1OCC(=O)N1CCOCC1
-9%	O=C(/C=C\c1ccc2c(c1)OCO2)NC1(C(=O)Nc2ccc3c(c2)OCO3)CCCCC1
6%	CCN(C(=O)CN1CCN(C)CC1)c1cccc2ccccc12
-20%	CCCC[C@@H]1CNC(=S)N1CCc1cccc2ccccc12
9%	CCN(C(=O)c1ccco1)c1nnc(-c2ccc(OC)cc2)s1
0%	Cc1cc(C)c(NC(=O)CNC(=O)c2cc(C3CC3)nn2-c2ccccc2)c(C)c1
-12%	O=C(NCCCN1CCOCC1)C1CCN(S(=O)(=O)c2cccc(Cl)c2Cl)CC1
3%	CCOc1ccc(-c2cc(C(=O)NCc3ccc(OCC)c(OC)c3)[nH]n2)cc1
-9%	CC(C)OC(=O)NCN1C(=O)C2C3C=CC(C3)C2C1=O (configuration not stated)
-18%	COc1ccc(C(=O)N2CCC3(CC2)CCN(C(c2ccccc2)c2ccccc2)CC3)cc1
-2%	CN(NS(=O)(=O)c1cccs1)c1ncc(C(F)(F)F)cc1Cl
-28%	CC(C)n1cnc2c(=S)nc[nH]c21
-6%	C/C(Cn1nnc([N+](=O)[O-])n1)=N\NC(=O)c1ccc(C)cc1
-1%	CCOc1c2ccc(C(=O)NCc3ccc(C)cc3)cc2nn1CC
-21%	Cc1cc(-c2cc(-c3ccccc3)on2)nc(NC2CCCC2)n1
?	COc1cccc(/C=C2\C(=O)N(c3cccc(C)c3)C(=O)c3ccccc32)c1
-24%	Cc1c(NS(=O)(=O)c2cccc(C(=O)Nc3ccc(SC(F)F)cc3)c2)c(=O)n(-c2ccccc2)n1C
8%	COc1ccc(NC(=O)CN(C)C(=O)CSc2nc3ccccc3s2)cc1
4%	CN1CCC(N2CCN(c3cccc(C(F)(F)F)c3)CC2)CC1
-7%	CC1CCN(Cc2nnnn2-c2cccc([N+](=O)[O-])c2)CC1
6%	COc1ccccc1N1CCN(C2CCN(C(=O)c3ccc(F)cc3)CC2)CC1
5%	C[C@@H]1CCCCCCCCC(=O)OCCN(C(=O)OC(C)(C)C)[C@H](C)CCCCCCCCC(=O)OCCN(C(=O)OC(C)(C)C)[C@H](C)CCCCCCCCC(=O)OCCN1C(=O)OC(C)(C)C

Results, repeating the preview:
VDR inhibitor	SMILES
4%	CCOc1cc(/C=C/c2nc3cc(C)c(C)cc3s2)ccc1OCC(=O)N1CCOCC1
-9%	O=C(/C=C\c1ccc2c(c1)OCO2)NC1(C(=O)Nc2ccc3c(c2)OCO3)CCCCC1
6%	CCN(C(=O)CN1CCN(C)CC1)c1cccc2ccccc12
-20%	CCCC[C@@H]1CNC(=S)N1CCc1cccc2ccccc12
9%	CCN(C(=O)c1ccco1)c1nnc(-c2ccc(OC)cc2)s1
0%	Cc1cc(C)c(NC(=O)CNC(=O)c2cc(C3CC3)nn2-c2ccccc2)c(C)c1
-12%	O=C(NCCCN1CCOCC1)C1CCN(S(=O)(=O)c2cccc(Cl)c2Cl)CC1
3%	CCOc1ccc(-c2cc(C(=O)NCc3ccc(OCC)c(OC)c3)[nH]n2)cc1
-9%	CC(C)OC(=O)NCN1C(=O)C2C3C=CC(C3)C2C1=O (configuration not stated)
-18%	COc1ccc(C(=O)N2CCC3(CC2)CCN(C(c2ccccc2)c2ccccc2)CC3)cc1
-2%	CN(NS(=O)(=O)c1cccs1)c1ncc(C(F)(F)F)cc1Cl
-28%	CC(C)n1cnc2c(=S)nc[nH]c21
-6%	C/C(Cn1nnc([N+](=O)[O-])n1)=N\NC(=O)c1ccc(C)cc1
-1%	CCOc1c2ccc(C(=O)NCc3ccc(C)cc3)cc2nn1CC
-21%	Cc1cc(-c2cc(-c3ccccc3)on2)nc(NC2CCCC2)n1
?	COc1cccc(/C=C2\C(=O)N(c3cccc(C)c3)C(=O)c3ccccc32)c1
-24%	Cc1c(NS(=O)(=O)c2cccc(C(=O)Nc3ccc(SC(F)F)cc3)c2)c(=O)n(-c2ccccc2)n1C
8%	COc1ccc(NC(=O)CN(C)C(=O)CSc2nc3ccccc3s2)cc1
4%	CN1CCC(N2CCN(c3cccc(C(F)(F)F)c3)CC2)CC1
-7%	CC1CCN(Cc2nnnn2-c2cccc([N+](=O)[O-])c2)CC1
6%	COc1ccccc1N1CCN(C2CCN(C(=O)c3ccc(F)cc3)CC2)CC1
5%	C[C@@H]1CCCCCCCCC(=O)OCCN(C(=O)OC(C)(C)C)[C@H](C)CCCCCCCCC(=O)OCCN(C(=O)OC(C)(C)C)[C@H](C)CCCCCCCCC(=O)OCCN1C(=O)OC(C)(C)C
-4%	C=CCCC(=O)NC1CC(C)(C)Cc2c1cnn2-c1ccc(OC)cc1 (configuration not stated)
-18%	CC(Oc1ccc([N+](=O)[O-])cc1)C(=O)NCCCN1CCOCC1 (configuration not stated)
-10%	CC1CC(C)(C)CC2(C1)NC(=O)N(CC(=O)N(Cc1ccccc1)c1ccccc1)C2=O (configuration not stated)
-3%	CCC(Oc1ccccc1)C(=O)Nc1cc(C(F)(F)F)ccc1N1CCOCC1 (configuration not stated)
-34%	CC1CCN(C(=O)c2cc(-c3ccc(Br)cc3)on2)CC1
8%	Oc1c(Cl)c(Cl)c2ncccc2c1Cl
-7%	O=C(CCCN1C(=O)NC2(CCCC2)C1=O)Nc1ccc(Cl)c(S(=O)(=O)N2CCOCC2)c1
-14%	Cn1cccc1C(=O)NC(=O)CSc1nnc(C2CC2)n1-c1ccccc1
-1%	O=C(NCc1ccccn1)C(=O)NCC1OCCN1S(=O)(=O)c1ccc([N+](=O)[O-])cc1 (configuration not stated)
6%	Cc1ccc(CCNC(=O)C2CCN(S(=O)(=O)c3c(C)nn(C)c3C)CC2)cc1
-7%	CCN(CC(=O)NCc1cccs1)C(=O)c1ccc(C)o1
-2%	N#Cc1c(-c2ccc(F)cc2)cc(C2CC2)nc1SCC(=O)c1cccs1
-18%	COc1cc(NC(=O)COC(=O)CC(NC(C)=O)c2ccccc2)cc(OC)c1 (configuration not stated)
1%	NC(=S)Nc1cccc(O)c1
-27%	O=C1c2cc(Br)ccc2N(Cc2ccc(Br)cc2)S(=O)(=O)C1c1cc(Cl)c(Cl)cc1[N+](=O)[O-] (configuration not stated)
-2%	CC(=O)NCCC(=O)N1CCCC(N(C)CCc2ccccc2)C1 (configuration not stated)
8%	COc1ccc2oc(-c3ccccc3)c(C(=O)N(C)C)c2c1
-15%	CN(C)CCCn1c2c(c(SCC(=O)Nc3ccc4c(c3)OCO4)nc1=O)CCC2
1%	CCC1CCc2nc3sc(C(=O)Nc4ccc(F)cc4F)c(N)c3cc2C1 (configuration not stated)
-27%	Clc1nc(Cl)nc(-c2cn(-c3ccccc3)c3ccccc23)n1
-1%	CCOc1ccccc1NC(=O)C(=O)NCC1CCCN1CC (configuration not stated)
-10%	CCOC(=O)c1sc2nc(CC(=O)OC)nc(NCCN3CCOCC3)c2c1C
10%	COc1cc(OC)cc(-c2nc3nc(C)c(CCC(=O)NCCC(C)C)c(C)n3n2)c1
15%	COc1ccc(NC(=O)CNC(=O)c2sc3ccccc3c2Cl)c(OC)c1
0%	CCn1c(SCC(=O)NCCc2ccc(Cl)cc2)nnc1-c1cccs1
18%	O=C(OCC(=O)N1CCc2ccccc21)C1=COCCO1
-2%	O=C(CN1C(=O)C2CCCCC2C1=O)Nc1nccs1 (configuration not stated)
1%	COCCn1c(SCC(=O)Nc2ccc(OC)c(S(N)(=O)=O)c2)nc2ccccc21

The list continues:
VDR inhibitor	SMILES
7%	O=C(/C=C\c1ccc(O)c(O)c1)O[C@@H](Cc1ccc(O)c(O)c1)C(=O)O
13%	O=C(NNS(=O)(=O)c1ccc(F)cc1)c1ccc(S(=O)(=O)N2CCCCC2)cc1
-2%	COc1ccc(C2CC(c3ccccc3)Nc3nc(NS(C)(=O)=O)nn32)cc1 (configuration not stated)
32%[activator]	COc1ccc([N+](=O)[O-])c(OC)c1C(=O)Nc1ccc(F)cc1F
-14%	O=C(COC(=O)c1ccc([N+](=O)[O-])o1)Nc1cccc(S(=O)(=O)N2CCOCC2)c1
-5%	Cn1c(CN2CCN(C(=O)c3ccc(F)cc3)CC2)nc2cc([N+](=O)[O-])ccc21
-14%	CC1CCN(c2nc(N(C)c3ccccc3)nc(N)c2[N+](=O)[O-])CC1
-13%	CC1(C)O[C@@H]1COc1c2ccoc2cc2oc(=O)ccc12
-14%&3%	CSc1cc2c(cc1C(F)(F)F)N(C(=O)Nc1cccnc1)CC2
-5%	S=C(NCCSCc1ccc(Cl)cc1)Nc1ccccc1
2%	O=C(CCCCCn1c(=O)[nH]c2ccccc2c1=O)NCCc1c[nH]c2ccccc12
-14%	Cc1nc(N2CCN(Cc3ccc4c(c3)OCO4)CC2)[nH]c(=O)c1C
2%	COc1ccc(NC(=O)CCSc2nc(-c3ccco3)cc(C(F)(F)F)n2)cc1OC
7%	C=CC[C@H](CC(=O)OC(C)(C)C)C(=O)OC[C@@H]1CCCN1C(=O)[C@@H](CC=C)CC(=O)NCCO
4%	O=C(CN1CCOCC1)Nc1nc(-c2ccccc2)cs1
4%	Cc1cc(=O)c2cc(C(=O)Nc3cccc(C)c3C)ccc2[nH]1
-2%	Cc1ccc(CCNC(=O)C2=CCN(S(=O)(=O)c3ccccc3)CC2)cc1
4%	Fc1ccc(CN2CCCN(Cc3nc(-c4ccc5c(c4)OCO5)no3)CC2)cc1
-8%	O=C(CSc1nc2ccc([N+](=O)[O-])cc2[nH]1)NCCc1ccccc1
25%	COc1ccc(NC(=O)c2ccc(S(=O)(=O)N3CCCCC3)cc2)cc1OC
-5%	CCN(Cc1nc2cc(Cl)ccc2c(=O)[nH]1)C(=O)c1cc(C2CC2)nn1-c1ccccc1
2%	CCOC(=O)CC(N)c1ccc2c(c1)OCO2 (configuration not stated)
-8%	CCN1C(=O)[C@H]2[C@@H](c3ccc(C)cc3)N3C(=O)N(c4ccc(OC)cc4)C(=O)[C@@]3(Cc3ccc(Cl)cc3)[C@H]2C1=O
9%	O=C1CC(NS(=O)(=O)c2ccccc2)CN1c1ccc2c(c1)OCCO2 (configuration not stated)
2%	O=C(NCc1ccccc1F)C1CCCN1C(=O)Nc1ccccc1 (configuration not stated)

Pulled one by one from the list above (2):
VDR inhibitor	SMILES
-14%	O=C(COC(=O)c1ccc([N+](=O)[O-])o1)Nc1cccc(S(=O)(=O)N2CCOCC2)c1
-14%	CC1CCN(c2nc(N(C)c3ccccc3)nc(N)c2[N+](=O)[O-])CC1

Other records follow:
VDR inhibitor	SMILES
-6%	CCCn1c(SC/C(O)=C(\C#N)c2nc3ccccc3[nH]2)n[nH]c1=O
-19%	COc1ccc(Nc2nc(NCCN3CCOCC3)nc(Nc3ccc(OC)cc3)n2)cc1
-25%	CN(CCOCCOc1ccc(F)cc1)Cc1ccccc1
27%	COc1cccc(CN2CCN(CC#Cc3ccccc3)CC2CCO)c1 (configuration not stated)
6%	CC(C)Oc1cccc(C(=O)C2CCCN(C(=O)CCn3cnnn3)C2)c1 (configuration not stated)
-27%	Cc1ccc(NC(=S)NCCN2CCOCC2)cc1C
23%	Cc1nnc(NC(=O)c2c(F)c(F)c(F)c(F)c2F)s1
-1%	C=CCn1c(-c2cccnc2Cl)nc2cc(Cl)c(Cl)cc21
-20%	Nc1ccc(C(=O)N2CCN(S(=O)(=O)c3ccc4c(c3)OCCCO4)CC2)cc1[N+](=O)[O-]
2%	NC(N)=N/N=C/c1cccc([N+](=O)[O-])c1O
-2%	COc1ccc([N+](=O)[O-])cc1NC(=O)Nc1ccccc1
6%	O=C(CN1CCN(c2ccccn2)CC1)N1CC(O)CO1 (configuration not stated)
11%	Cc1ccccc1NC(=O)c1cccc(N2C(=O)C3CCC(C)CC3C2=O)c1 (configuration not stated)
9%	Cc1ccc(S(=O)(=O)NC(C)(C)C)cc1C(=O)OCC(=O)N1CCCC1=O
3%	O=C(O)c1ccc(/C=N/NC(=S)NCc2ccccc2)cc1
10%	O=C(COc1ccc(F)cc1)N(Cc1cccs1)C1CCS(=O)(=O)C1 (configuration not stated)
7%	CC(=O)Nc1ccc(S(=O)(=O)N2C(C)CCCC2C)cc1 (configuration not stated)
11%	CC(C)CN1CCC2(CC1)CCN(C(=O)c1csnn1)CC2
-22%	CC1CCc2c(sc(NC(=O)COC(=O)C3CCCO3)c2C#N)C1 (configuration not stated)
10%	O=C(OCC#CCSc1nnc(-c2ccc(Br)cc2)o1)c1cccs1
-10%	CC(C)(C)NC(=O)CN(Cc1ccco1)C(=O)CCC(=O)Nc1nccs1
10%	Cc1c(Br)c([N+](=O)[O-])nn1CC(=O)N1CCCc2ccccc21
-6%	COc1ccc(Cn2c(-c3ccc(C)cc3)c[n+]3ccccc23)cc1
-49%	Cc1ccc(/C=C/C(=O)N2CCN(S(=O)(=O)c3c(C)c(C)cc(C)c3C)CC2)o1
-4%	CCOc1ccc(C2/C(=C(\O)c3cccc(OC)c3)C(=O)C(=O)N2c2cc(C)on2)cc1OC (configuration not stated)
3%	O=P(O)(CCCP(=O)(O)CCc1ccccc1)CCc1ccccc1
5%&10%&5%	CN(C/C=C/C#CC(C)(C)C)Cc1cccc2ccccc12
5%	CCOC(=O)C1CCCN(C(=O)C2CCCN(S(C)(=O)=O)C2)C1 (configuration not stated)
-4%	COC(=O)c1sccc1NC(=O)/C=C\c1ccc(Cl)cc1Cl
-4%	OCC1CCCC(n2cnc3c(=S)nc[nH]c32)O1 (configuration not stated)
6%	COc1cc2c(cc1OC)CN(C(=O)c1ccc(Br)o1)CC2
10%	COc1ccccc1CNc1n[nH]c(NCc2ccccc2OC)n1
8%	O=C(CCNS(=O)(=O)c1cccc2nonc12)N1CCN(c2cccc(Cl)c2)CC1
-19%	O=C(CCN1C(=O)c2ccccc2C1=O)NC1=NCCS1
?	O=C(CNc1ccccc1)c1ccc([N+](=O)[O-])cc1
-14%	O=C(c1ccco1)N1CCN(C(=O)c2cnn3c(C(F)(F)F)cc(-c4cccs4)nc23)CC1
13%	COc1ccc(S(=O)(=O)Nc2ccc3c(c2)C(=O)N([C@H](C)CO)C[C@H](C)[C@@H](CN(C)S(=O)(=O)c2cccs2)O3)cc1

A portion of the library. The share of hits here may be higher or lower than overall.
